Ecoli growth: E. coli growth inhibition; Escherichia coli growth, OD600, 23 h; active compounds read low; OD600 absorbance (test concentration not listed); 330,000 compounds, 0.21% hits;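 active means OD600 absorbance below the run mean of sample wells minus 3.6 SD, in any replicate, cut at about 0.56 in these data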;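 further: stock transfer was 300 nL into about 60 µL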
AF4-AF9 inh: MLL-AF4/AF9 protein interaction inhibition; P42568; AlphaScreen, biotin-AF4 peptide binding to FLAG-AF9; inhibition, % at 10 µM; 350,000 compounds, 0.47% hits; AID 651704;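 active means every replicate reaching a set inhibition limit, whatever the replicate mean, cut at about 25% in these data; inconclusive means mean inhibition reaches that limit but some replicates miss it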;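 further: 0% = plate neutral control median and 100% = total signal loss; the record names both 10 and 1 µM as test concentration; the first replicate is given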
Target sequence (P42568 whole entry, looked up): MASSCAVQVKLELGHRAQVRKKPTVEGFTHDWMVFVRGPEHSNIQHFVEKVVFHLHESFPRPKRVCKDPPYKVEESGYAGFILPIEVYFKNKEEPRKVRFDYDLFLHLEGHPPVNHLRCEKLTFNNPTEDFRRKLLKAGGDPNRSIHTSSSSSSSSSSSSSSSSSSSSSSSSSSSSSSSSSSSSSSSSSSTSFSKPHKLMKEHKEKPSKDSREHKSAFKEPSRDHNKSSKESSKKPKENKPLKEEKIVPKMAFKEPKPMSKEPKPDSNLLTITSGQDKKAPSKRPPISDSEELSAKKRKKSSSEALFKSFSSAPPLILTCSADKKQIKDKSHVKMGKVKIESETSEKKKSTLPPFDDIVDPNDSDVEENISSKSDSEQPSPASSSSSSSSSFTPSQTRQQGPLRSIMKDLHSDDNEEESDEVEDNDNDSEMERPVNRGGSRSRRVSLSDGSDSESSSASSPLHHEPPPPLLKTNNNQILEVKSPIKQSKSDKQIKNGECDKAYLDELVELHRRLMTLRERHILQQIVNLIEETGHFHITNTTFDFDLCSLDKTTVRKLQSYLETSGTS
FGF22 binding: binders of recombinant human FGF22 by thermal shift; calls only at 9.99 µM; 340,000 compounds, 1.5% hits; Q9HCT0; SYPRO orange fluorescence; percent of sucrose octasulfate shift, DMSO zero; AID 651658;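 active means melting point raised past a set limit in the mean and every replicate; inconclusive means no clear call; three in four hits are not shown here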
Target sequence (Q9HCT0 whole entry, looked up): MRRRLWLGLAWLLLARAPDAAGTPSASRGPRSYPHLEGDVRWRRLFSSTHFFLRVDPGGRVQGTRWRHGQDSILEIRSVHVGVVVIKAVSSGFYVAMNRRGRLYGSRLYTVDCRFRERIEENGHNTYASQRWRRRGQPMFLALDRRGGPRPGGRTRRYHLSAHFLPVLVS
T cruzi repl: T. cruzi replication inhibition | T. cruzi beta-gal in NIH3T3, luminescence, 90 h | inhibition, % (test concentration not listed) | 300,000 compounds, 1.4% hits | AID 1885;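 active means mean inhibition across valid replicates above about 55%, limit read from the data; inconclusive means mean below that limit but half or more replicates reach it; inactive means mean below it, under half of replicates reach it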;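 further: signal also drops with host cell toxicity which is not excluded here; 0% = plate median of DMSO wells and 100% = zero luminescence signal; higher percent means less beta-gal luminescence so fewer parasites; stock transfer was 50 nL into about 50 µL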
UCH37 inh: human UCH37 deubiquitinating enzyme inhibition; purified proteasome/UCH37, Ub-AMC cleavage fluorescence; inhibition, % (concentration not given with the values); 330,000 compounds, 0.33% hits; AID 588478;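 active means mean of two replicates above 20%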;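 further: 0% = compound-free wells with enzyme and 100% = wells lacking proteasome; stock transfer was 100 nL into about 20 µL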
Target sequence (Q9Y5K5 whole entry, looked up): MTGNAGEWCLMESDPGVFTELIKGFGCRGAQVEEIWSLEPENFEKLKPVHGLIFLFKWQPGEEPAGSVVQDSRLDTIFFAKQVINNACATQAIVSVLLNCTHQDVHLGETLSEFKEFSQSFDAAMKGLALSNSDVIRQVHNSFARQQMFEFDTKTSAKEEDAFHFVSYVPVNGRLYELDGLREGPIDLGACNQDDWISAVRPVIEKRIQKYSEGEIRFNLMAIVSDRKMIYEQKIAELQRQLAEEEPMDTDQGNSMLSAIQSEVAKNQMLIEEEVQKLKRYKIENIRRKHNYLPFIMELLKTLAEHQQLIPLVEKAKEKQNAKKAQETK
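Material: Human UCH37 enzyme supplied as purified proteasome complex | Schedule: 30 min compound-proteasome preincubation then 25 min substrate reaction, room temperature | Detection: AMC fluorescence from Ub-AMC cleavage, excitation 355 nm, emission 460 nm | Benchmarks: Wells without proteasome as full block, compound-free enzyme plus substrate as uninhibited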
Beta cell apopt: blocks beta cell apoptosis; 300,000 compounds, 0.8% hits; INS-1E cytokine-induced death, ATP luminescence, 48 h; percent of positive-control rescue, neutral wells zero; protection from apoptosis, % (test concentration not listed);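 active means all replicates at 75% or more, or half of them and the mean; inconclusive means half reach 75% but not the mean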;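 further: 0% = cytokine-treated negative control wells and 100% = positive control rescue; higher means more ATP so stronger rescue from cytokine killing; wells of about 40 µL received 100 nL stock; the first replicate is given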
Bfl-1 A1 inh: inhibitors of the anti-apoptotic protein A1, read as caspase activation. MEF A1-2A-BIM cells, Caspase-Glo 3/7 luminescence, 3 h; percent of clofoctol response, vehicle zero. caspase activation, % (test concentration not listed). 330,000 compounds, 0.066% hits;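 active means over half of replicate activation scores above 10%, or exactly half above 10 with the replicate mean above 10; inconclusive means replicate mean below 10 yet half the replicates above 10; inactive means over half of replicates below 10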;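 further: wells of about 30 µL received 50 nL stock; many hits fall short of the cut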
Ecoli rRNA inh: inhibitors of bacterial rRNA selective over humanized ribosomes | E. coli WT GFP vs humanized-ribosome RFP mutants, fluorescence, 24 h; active compounds read low; DMSO median 0, no signal -100 | GFP signal change (wild-type ribosome), % (test concentration not listed) | 350,000 compounds, 1.6% hits | AID 720706;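 active means significant combined selectivity score with lowered wild-type GFP, culture density cut under 30%, mutant RFP and density less affected; inactive means any of these conditions unmet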; further: one replicate is shown; some compounds called inactive have numbers as strong as hits
Ecoli rRNA inh OD600: further read-out of Ecoli rRNA inh, marked with its call; OD600 change, %; measured here: OD600 growth;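 optical density of the mix in the first replicate; 0 = DMSO median and -100 = no signal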
Ecoli rRNA inh RFP: recorded beside Ecoli rRNA inh, whose call it bears; RFP signal change, %; measured here: RFP humanized mutant strains;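 first replicate; 0 = DMSO median and -100 = no signal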
Active calls of the source: *; i = inactive; ? = inconclusive; · = no result given. This is a subset; count on the stated rates, not on these rows.

SMILES	Ecoli growth	AF4-AF9 inh	FGF22 binding	T cruzi repl	UCH37 inh	Beta cell apopt	Bfl-1 A1 inh	Ecoli rRNA inh	Ecoli rRNA inh OD600	Ecoli rRNA inh RFP
O=c1c2cc(Cl)ccc2nc(-c2ccc(Cl)c(Cl)c2)n1O	·	3.6	i	43	·	38	-0.5	-52	-79	-28
CSc1nsc(SC)c1NC(=O)OCC1CCCO1 (centres undefined)	0.72	·	·	-2	2.8	-5	-0.2	·	·	·
CCOC(=O)Nc1ccc2c(c1)N(C(=O)N(C)C)c1ccccc1CC2	0.72	·	·	2	-1.4	0	0.1	·	·	·
COc1ccc(C(=O)CN(C(=O)c2ccc(Cl)cc2)N2C(=O)c3ccccc3C2=O)cc1	0.73	·	·	-2	2.7	-3	-1.3	·	·	·
CCCN(CC(=O)Nc1ccccc1OC)C(=O)CC1CCCC1	0.71	0.9	i	·	1.0	-4	-1.0	-3	-22	1.0
O=C(OCC(=O)N1CCOCC1)c1cc(-c2ccccc2)nc2ccccc12	0.71	2.3	i	·	-28	3	-0.5	-11	-39	-10
O=C(c1ccccc1Br)N1N=C(c2ccccc2)CC1c1ccccc1F (centres undefined)	0.71	2.2	i	27	1.2	6	0.5	-10	-18	-0.6
COc1cccc(NC(=O)CSc2nnc(CNC(=O)c3ccco3)n2C)c1	0.66	-2.4	·	-2	1.8	5	?	12	11	-0.4
FC(F)(F)c1cccc(NC(=S)NCc2ccccc2)c1	0.56	·	·	5	1.4	-1	-0.2	·	·	·
COC(=O)C1=C(C)N(Cc2ccccc2)C(=S)N[C@H]1c1cccc(F)c1	·	0.4	i	-44	·	6	?	-34	-36	-24
Cc1ccc(NC(=O)COc2cccnc2[N+](=O)[O-])cc1S(=O)(=O)N1CCOCC1	0.66	1.6	i	11	0.2	-4	0.1	11	-6	0.2
COc1ccc(/C=C2/N=C(SC)NC2=O)cc1OC	0.68	-2.6	i	-15	8.5	-8	-1.0	11	6	-0.4
CC1CCCN(C(=O)CSc2nnc(-c3c[nH]c4ccccc34)o2)C1 (centres undefined)	0.68	·	·	7	1.6	-2	-0.3	·	·	·
Cc1cc(C)c(NC(=O)C2CCCN2CCOC(=O)c2cccc([N+](=O)[O-])c2)c(C)c1 (centres undefined)	0.67	·	·	-15	2.5	3	0.1	·	·	·
Cc1ccc(NC(=O)C(SCC(=O)O)c2ccccc2)cc1C (centres undefined)	0.69	·	·	-11	0.9	-2	-0.4	·	·	·
CSc1ccccc1-c1nnc(-c2ccc(Cl)cc2Cl)o1	0.73	·	·	23	-2.3	-9	-0.9	·	·	·
Cc1nn(-c2ccccc2)c(C)c1NC(=O)COC(=O)c1ccc(Cl)c(N)c1	0.69	-0.7	i	-1	-8.7	1	0.9	5	2	-0.8
O=C(COC(=O)CCC(=O)c1ccc(F)cc1)NCc1ccc(Cl)cc1	0.62	1.6	i	·	1.7	-4	-1.3	-15	-9	6.2
COc1cc2c(cc1OC)CN(C(=O)c1nn(Cc3ccccc3)c(=O)c3ccccc13)CC2	0.69	7.0	i	·	-0.4	3	-0.9	-6	-17	4.2
COc1ccc(N2CCN(c3ncccc3C#N)CC2)cc1	0.64	·	·	-4	0.2	1	-0.2	·	·	·
O=C(Cn1cc([N+](=O)[O-])cn1)Nc1ccn(Cc2c(F)c(F)cc(F)c2F)n1	0.67	·	·	7	-0.6	-10	0.5	·	·	·
COc1ccc(CNC(=O)COc2cc(=O)n(C)c3ccccc23)cc1	0.69	0.9	i	6	-0.6	0	-0.3	16	11	0.3
CCN1CCN(c2c(C=O)c(Cl)nc3ccc(OC)cc23)CC1	0.69	-0.4	i	-17	3.9	·	1.1	0	-2	0.4
CCOc1ccc(/C=C2\SC(=O)N(CCNC(=O)C3COc4ccccc4O3)C2=O)cc1OC (centres undefined)	0.64	·	·	0	-6.2	-2	-0.5	·	·	·
COc1ccc(-c2[nH]nc3c2C(c2ccsc2)C(C#N)=C(N)O3)cc1 (centres undefined)	0.72	·	·	-16	0.4	1	0.2	·	·	·
O=C(COC(=O)Cc1cccc(C(F)(F)F)c1)Nc1ccccc1	0.72	-1.4	i	-4	5.0	-2	-0.3	-5	-1	0.1
COc1ccc(OC)c(NC(=O)C2CCCN2C(=O)C2CCC(C)CC2)c1 (centres undefined)	0.7	-3.9	i	14	0.0	-5	0.4	5	5	0.4
Cc1ccc(CSCCNC(=O)/C=C/c2ccc(Cl)cc2)cc1	0.68	·	·	4	4.4	-3	-0.6	1	4	1.6
COc1ccc(S(=O)(=O)O)cc1P(=O)(c1ccccc1)c1ccccc1	0.67	-0.5	i	-1	-2.6	-4	0.4	7	10	1.0
Cn1c(=O)[nH]c(=O)c2c1nc(N1CCOCC1)n2CCCSc1ncccn1	0.7	·	·	-5	3.3	1	1.7	·	·	·
Cc1[nH]oc(=O)c1N=Nc1ccccc1	0.66	·	·	2	10	1	-0.8	·	·	·
O=C(O)c1ccc(-n2cccc2/C=C2/NC(=O)N(c3cccc(Cl)c3)C2=O)cc1	0.67	-2.6	i	·	11	·	·	-4	-7	9.3
O=C(Nc1cccc(NC(=O)c2ccc(Cl)cc2Cl)c1)c1cccnc1	0.65	-1.7	i	11	1.7	·	0.3	-4	-3	-0.5
CCn1cc(C(=O)NNC(=O)c2ccc(Cl)cc2)c(=O)c2ccc(C)nc21	0.38*	·	·	-19	2.4	2	-0.5	·	·	·
CCc1ccc(-c2cn3nc(-c4ccccc4)cnc3n2)cc1	0.66	-0.6	i	-14	-12	-3	-4.6	·	·	·
CC1CC(=O)N(Cc2ccccc2)c2ccccc2N1C=O (centres undefined)	0.66	·	·	-1	-2.1	-1	-1.1	·	·	·
CCOC(=O)N1CCN(Cc2nc3c(c(=O)n(C)c(=O)n3C)n2Cc2cccc3ccccc23)CC1	0.72	·	·	26	2.7	6	-0.2	·	·	·
Cc1cc(C)c(OCC(=O)OCC(=O)N2CCN(C(=O)c3ccco3)CC2)c(C)c1	0.69	-1.3	i	-5	0.1	-8	0.7	-2	6	-0.9
COc1ccc(S(=O)(=O)N2CCOCC2)cc1NC(=O)COc1cccnc1[N+](=O)[O-]	0.69	-15	i	9	1.9	3	-0.1	11	15	3.9
Nc1nnc(SCC(=O)Nc2ccccc2)s1	0.68	·	i	-8	2.6	·	-2.2	14	8	1.3
CCN(C[C@H]1N[C@@](Cc2ccccc2)(C(=O)OC)[C@H]2C(=O)N(C)C(=O)[C@@H]12)S(=O)(=O)c1ccc(C(F)(F)F)cc1	0.67	1.0	i	·	1.1	-7	0.1	-10	-20	1.4
C[C@@H](NC(=O)c1[nH]cnc1C(=O)Nc1cccc(Cl)c1)c1ccccc1	·	-8.0	i	·	1.8	2	-0.4	7	3	-0.7
CCOC(=O)c1c(N)sc2c1C1CCN2CC1	0.73	·	·	-5	2.4	3	0.1	·	·	·
CC1CCCN(CC(=O)NNC(=O)COc2ccc(Br)cc2)C1 (centres undefined)	0.7	-0.3	i	·	1.0	-3	-1.3	2	0	0.9
CCOc1ccc(N2C(=O)CC(SC(=NC)Nc3cccc(OC)c3)C2=O)cc1 (centres undefined)	0.65	-0.6	·	18	1.2	4	0.7	·	·	·
COc1cc(-c2nc3ccc(C)cn3c2NCc2ccccc2)ccc1SC1CCCCC1	0.73	0.6	i	42	-313	110*	0.9	-1	3	-6.4
O=C(COC(=O)c1ccc(Cl)nc1)NC1CCCCCC1	0.63	-0.9	i	·	0.3	-2	0.3	2	4	-3.6
Cc1nn2c(N3CCOCC3)cc(C(C)C)nc2c1-c1ccccc1	0.68	-2.1	i	4	-25	0	0.1	8	11	1.1
CN(C)c1ccc(/C=N/N2CCN(Cc3ccccc3Cl)CC2)cc1	·	31*	i	-10	·	-5	0.1	3	-2	-0.7
C=CCn1c(NCc2ccc3c(c2)OCO3)nc2ccccc21	0.69	·	·	·	0.9	4	0.8	·	·	·

Going on with the list.
SMILES	Ecoli growth	AF4-AF9 inh	FGF22 binding	T cruzi repl	UCH37 inh	Beta cell apopt	Bfl-1 A1 inh	Ecoli rRNA inh	Ecoli rRNA inh OD600	Ecoli rRNA inh RFP
COc1ccc(-c2cc(NC(=O)c3cncn3-c3ccccc3)ccc2OC)cc1	0.62	6.1	i	23	-3.1	1	1.4	-11	-40	-1.2
COc1ccc(N(CC(=O)NCCC(C)C)C(=O)c2snc(C(=O)NC3CCCCC3)c2N)c(OC)c1	0.71	4.8	i	17	-11	·	·	0	10	3.1
Cc1cc(-c2[nH]nc3c2C(c2ccsc2)C(C#N)=C(N)O3)c(C)s1 (centres undefined)	0.79	·	·	-16	4.4	-9	-0.2	·	·	·
COc1ccc(C(=O)Oc2cccnc2)cc1OC	0.71	·	·	-11	1.9	0	2.0	·	·	·
S=C(Nc1cc(Cl)ccc1Cl)Nn1cnnc1	0.64	-7.2	i	-1	-0.7	3	0.0	-6	-3	0.7
CCCCCC(=O)Nc1c(-c2cccs2)c(=O)c2ccccc2n1C	0.71	·	·	-3	-4.0	0	0.1	·	·	·
O=C(Nc1ccccc1-c1nc2ccccc2[nH]1)c1sc2ccccc2c1Cl	0.7	·	·	60*	-13	3	0.9	·	·	·
CCOC(=O)c1ccc(N2C(=O)c3n[nH]c(-c4ccco4)c3C2c2cccc([N+](=O)[O-])c2)cc1 (centres undefined)	0.68	·	·	43	2.3	3	0.0	·	·	·
Cc1cc2nccc(-c3ccc(Cl)cc3Cl)n2n1	0.69	-0.2	i	4	-0.9	-4	0.6	-4	-3	-2.2
CCOc1ccccc1OCc1nn2c(COc3ccccc3)nnc2s1	0.61	·	·	-5	1.0	-5	-0.7	·	·	·
COc1ccc(-c2nc(CS(=O)CC(=O)NC3CCCCC3)c(C)o2)cc1OC (centres undefined)	0.7	·	·	3	0.0	-11	0.0	1	4	-0.4
Cc1cn2c(N)c(/C=C3\C=Nc4ccccc43)c(=O)nc2s1	0.71	4.7	i	2	1.4	0	-0.6	18	1	3.3
COc1ccc(CC(=O)NC2CCN(Cc3nnnn3C(C)(C)C)CC2)cc1OC	0.68	·	·	-3	-1.3	-5	0.9	·	·	·
O=C(Nc1cc(Cl)cc(Cl)c1)c1cnn2cccnc12	0.73	·	·	-13	1.9	8	-1.4	·	·	·
CCOc1ccc(NC(=O)CSc2nnc(C34CC5CC(CC(C5)C3)C4)n2C)cc1	0.72	·	·	4	2.3	5	-1.1	·	·	·
COc1ccc(C(=O)NCCc2c[nH]c3ccccc23)cc1S(=O)(=O)N1CCOCC1	0.71	·	·	·	2.7	-1	-0.6	·	·	·
O=C(N/N=C/c1ccccn1)c1ccccc1	·	-9.8	i	-25	·	-1	-3.5	-26*	-10*	-7.8*
CC1(C)CC(=O)C(C(=O)Cc2ccccc2[N+](=O)[O-])C(=O)C1	0.72	·	·	-15	3.5	-6	1.5	·	·	·
Nc1cc(C(=O)O)c(N)c2c1C(=O)c1ccccc1C2=O	0.91	·	·	-6	15	25	-5.3	·	·	·
Cc1nc2c3cc(Cl)ccc3n(CCN3CCOCC3)c2s1	0.63	2.2	·	-3	6.3	-13	0.1	12	8	-2.0

High-throughput results (PubChem BioAssay)
